Arbovirus anti: blocks arbovirus infection | arbovirus infection cell-based antiviral screen | inhibition, % at 10 µM | 200,000 compounds, 0.37% hits;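 active = inhibition from about 30%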;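 also: bluetongue infection of BSR cells; cell survival read as ATP light after 72 h; 0% = infected wells without compound and 100% = uninfected wells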
Mtb betalactam: beta-lactam sensitization of Mtb H37Rv; M. tuberculosis H37Rv growth with meropenem, percent inhibition; hits of this screen are not shown here; inhibition, % at 25 µM; 330,000 compounds, 0.27% hits; AID 434955;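 active = about 74% or more and at least 40 points above the plate without the antibiotic, then above 30% in a dose series; inconclusive = first-round hits that could not be retested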;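 also: growth measured after seven days incubation then overnight dye step; 0% = bacteria only wells and 100% = bacteria with antibiotic; twin plates without the antibiotic show which effects depend on it; some results filed as inactive read as strong as hits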
YopH inh: blocks Yersinia enterocolitica YopH tyrosine phosphatase. 140,000 compounds, 0.16% hits. AID 898. inhibition, %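 (about 10 µM by stock and volumes)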. fluorescence Ex485/Em525;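 active = inhibition of 50% or more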;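 also: controls were vehicle for no effect and minimum signal wells for full effect; inactives centre near -20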
RecA splice inh: Mtb RecA intein splicing inhibition; P9WHJ3; cell-free RecA intein splicing, fluorescence; inhibition, %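 (about 9 µM by stock and volumes)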; 290,000 compounds, 0.75% hits; AID 2221; in the data active = inhibition above about 30%; inconclusive = no clear call, values can overlap the other calls;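 also: 0% = vehicle wells and 100% = reference inhibitor control wells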
Target sequence (P9WHJ3 whole entry, looked up, canonical isoform): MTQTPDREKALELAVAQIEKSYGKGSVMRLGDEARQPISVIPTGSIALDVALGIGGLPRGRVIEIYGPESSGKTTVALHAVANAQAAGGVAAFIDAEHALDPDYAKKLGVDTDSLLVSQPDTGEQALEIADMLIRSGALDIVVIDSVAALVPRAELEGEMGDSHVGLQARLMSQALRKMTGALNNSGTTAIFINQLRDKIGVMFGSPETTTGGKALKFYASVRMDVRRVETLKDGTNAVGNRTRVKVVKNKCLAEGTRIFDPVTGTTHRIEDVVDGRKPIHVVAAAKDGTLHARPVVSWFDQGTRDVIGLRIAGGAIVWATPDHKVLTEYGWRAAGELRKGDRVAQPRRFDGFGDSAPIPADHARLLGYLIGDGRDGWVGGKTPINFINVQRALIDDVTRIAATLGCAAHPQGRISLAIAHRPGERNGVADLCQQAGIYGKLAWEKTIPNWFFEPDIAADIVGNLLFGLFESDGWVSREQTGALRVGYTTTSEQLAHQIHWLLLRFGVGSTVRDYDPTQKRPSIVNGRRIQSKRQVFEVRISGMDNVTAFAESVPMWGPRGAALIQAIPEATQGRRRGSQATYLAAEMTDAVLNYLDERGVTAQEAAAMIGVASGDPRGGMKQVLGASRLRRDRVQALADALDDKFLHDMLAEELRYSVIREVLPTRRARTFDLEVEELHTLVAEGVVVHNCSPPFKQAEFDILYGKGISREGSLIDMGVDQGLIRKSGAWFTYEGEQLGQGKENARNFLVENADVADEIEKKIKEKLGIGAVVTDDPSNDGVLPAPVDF
Mtb growth: M. tuberculosis H37Rv growth inhibitors, H37Rv strain (AID 1626); inhibition, % at 10 µM; hits with a dose series show IC50 in µM; 220,000 compounds, 0.95% hits; M. tuberculosis H37Rv growth inhibition; higher % means a stronger effect;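 active = confirmed in a dose series; inconclusive = inhibition above 80% but not taken into the dose series; inactive = below 80% or under 30% at every dose of the series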;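 also: bacteria incubated seven days before Alamar blue readout; 0% = bacteria only wells and 100% = bacteria with antibiotic wells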
Arbovirus anti repeat: recorded beside Arbovirus anti, whose call it bears; inhibition, %; measured here: 10K subset replicate screen; many hits read low in the repeat;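 first of two repeat runs on a subset; 0% = infected and 100% = uninfected wells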
An asterisk follows results filed as active; ? = inconclusive; / = no result given. This is a subset, so the mix of outcomes need not match the whole.

SMILES | Arbovirus anti | Mtb betalactam | YopH inh | RecA splice inh | Mtb growth | others
CCOC(=O)C1CCCN(C(=O)c2ccc(CS(=O)(=O)Cc3ccccc3C)o2)C1 (stereo not given) | 4 | -5 | -20 | -1.7 | /
OCC1(Cc2ccc(Cl)cc2)CCN(CCCc2ccccc2)CC1 | -36 | 3 | / | 3.2 | 7%
COc1ccccc1OCC(=O)Nc1ccc(S(=O)(=O)NC(C)=O)cc1 | 1 | 1 | -42 | 0.0 | -8% | Arbovirus anti repeat=1
O=C(CN1CCN(Cc2ccc(F)cc2)CC1)Nc1nc2ccccc2s1 | / | 47 | / | 2.9 | /
Cc1cc(C)cc(C(=O)NC(CC(N)=O)c2ccc(NC3CCCCCC3)c([N+](=O)[O-])c2)c1 (stereo not given) | / | 17 | / | 1.8 | 2%
CCOC(=O)c1c(C)[nH]c(C)c1C(=O)COC(=O)/C=C/c1cccc(F)c1 | 14 | -2 | -8 | -1.8 | 2%
COc1cc(C(=O)Nc2ccc(S(=O)(=O)Nc3ncccn3)cc2)c([N+](=O)[O-])cc1OC | 2 | 3 | / | 0.5 | 1%
FC(F)(F)c1cnc(N2CCSCC2)c(Cl)c1 | / | -3 | / | -0.6 | -7%
Cc1nn(CCC#N)c(C)c1Oc1ccccc1O | / | -1 | / | -7.6 | -4%
COc1ccccc1CNC(=O)CSc1nnc2c(Cl)cc(C(F)(F)F)cn12 | -4 | -3 | -17 | -2.7 | 5%
Cc1ccc(C)c(OCC(=O)Nc2cc(C)on2)c1 | -2 | 2 | -30 | -1.3 | 5%
CCc1ccc(OCc2nnc(SCC(=O)NCC3CCCO3)n2C)cc1 (stereo not given) | / | -9 | / | 11 | /
CC(C)c1onc(C(=O)Nc2cccnc2Cl)c1[N+](=O)[O-] | 13 | 3 | / | 4.8 | 1%
CN(C(=O)C1CCCCC1)C1(C)CCS(=O)(=O)C1 (stereo not given) | / | -16 | / | 2.4 | /
CC(Sc1ncn[nH]1)C(=O)NCc1ccccc1 (stereo not given) | / | 9 | / | -2.1 | /
O=C(c1ccccc1)N1CCN(C2c3cccc4cccc(c34)C2NS(=O)(=O)c2ccccc2)CC1 (stereo not given) | -2 | 47 | 1 | 2.6 | 3%
CCN(CC(=O)Nc1ccc(NC(C)=O)cc1)CC(=O)Nc1cccc(Cl)c1 | / | -6 | / | -1.0 | /
C/C(=N\Nc1nc(N)cc(Cl)n1)c1cccc([N+](=O)[O-])c1 | 16 | -7 | -34 | -3.5 | 1%
O=C1c2cccc3c(O)ccc(c23)C(=O)N1Cc1ccccc1 | 8 | 2 | -18 | -47 | 0%
COC(=O)C(Cc1cccc(C)n1)(c1ccccc1)c1ccccc1 | / | -3 | / | 7.3 | /

Compounds listed so far with fluorine, in the order listed:
SMILES | Arbovirus anti | Mtb betalactam | YopH inh | RecA splice inh | Mtb growth | others
O=C(CN1CCN(Cc2ccc(F)cc2)CC1)Nc1nc2ccccc2s1 | / | 47 | / | 2.9 | /
CCOC(=O)c1c(C)[nH]c(C)c1C(=O)COC(=O)/C=C/c1cccc(F)c1 | 14 | -2 | -8 | -1.8 | 2%
FC(F)(F)c1cnc(N2CCSCC2)c(Cl)c1 | / | -3 | / | -0.6 | -7%
COc1ccccc1CNC(=O)CSc1nnc2c(Cl)cc(C(F)(F)F)cn12 | -4 | -3 | -17 | -2.7 | 5%

Later entries
SMILES | Arbovirus anti | Mtb betalactam | YopH inh | RecA splice inh | Mtb growth | others
COC(=O)Cc1ccc(NC(=S)N2CCN(CCO)CC2)cc1 | / | -6 | / | 0.2 | /
CCOC(=O)C1(Cc2ccc(Cl)cc2)CCN(C(=O)C2CCCO2)CC1 (stereo not given) | -8 | 0 | / | / | 8%
CCN1CCN(S(=O)(=O)c2ccc(Cl)c(C(=O)Nc3ccccc3N3CCCC3)c2)CC1 | / | 3 | / | -0.6 | /
O/N=C/c1ccn(-c2ccc(Br)cc2)c1 | -12 | 78 | / | -4.8 | 48%
COc1ccc(NC(=O)CSc2nnc(C3CCCCC3)n2N)cc1OC | / | 13 | / | 0.9 | /
CC(C)[C@@H]1NC(=O)c2cc([N+](=O)[O-])cc(I)c2OCC[C@@H](C(N)=O)NC(=O)[C@H](CCC(=O)O)NC1=O | 2 | -5 | -44 | 0.3 | -20%
CC(C)(C)OC(=O)N1CCCN(C(=O)Nc2ccc(OC(F)(F)F)cc2)CC1 | / | -5 | / | -2.8 | /
CC(C)c1ccc(S(=O)(=O)Nc2ccc(O)c(Sc3ncn[nH]3)c2)cc1 | / | -1 | / | -0.8 | /
CN(C)CCNC(=O)c1ccc2c(=O)n(Cc3ccc(Cl)cc3)c(=S)[nH]c2c1 | / | 7 | / | -4.7 | /
CCOC(=O)c1cccc(N/C=C/C(=O)c2ccc(OC)c(OC)c2)c1 | -3 | 96 | -15 | -2.0 | 24µM*
Cc1ccc(C(=O)NC2CCN(C(=O)N3CCOCC3)CC2)cc1 | 4 | -5 | -51 | -1.3 | -8%
CC(C)CNC(=S)N1CCC(Cc2ccccc2)CC1 | / | 3 | / | 2.8 | /
O=[N+]([O-])c1ccccc1SNc1ccccn1 | 3 | -2 | -22 | 3.9 | -3%
COc1ccc(C)cc1S(=O)(=O)N(C)CC(=O)N1CCN(c2ccccc2)CC1 | 9 | 3 | / | -0.3 | 2%
O=C(CCn1c(=O)[nH]c2ccsc2c1=O)N(CCc1ccccc1)Cc1ccccc1 | -23 | -6 | -5 | -0.9 | 0%
Cc1c(NC(=O)CN2C(=O)NC(C)(c3ccccc3)C2=O)c(=O)n(-c2ccccc2)n1C (stereo not given) | -6 | 4 | 5 | 0.6 | -3%
O=[N+]([O-])c1cc([N+](=O)[O-])c(Oc2ccc(F)cc2)cc1NN1CCCCC1 | / | 1 | / | 0.8 | /
O=C(NN1C(=O)C2C(c3ccccc3)C=CC(c3ccccc3)C2C1=O)c1ccccc1 (stereo not given) | 11 | -7 | -9 | 10.0 | -6%
Cc1ccc(S(=O)(=O)N2CCN(CC(=O)N/N=C/c3ccccc3OCC(=O)O)CC2)cc1 | / | 6 | / | -3.9 | -5%
COc1cc(S(=O)(=O)N2CCCCC2)ccc1NC(=O)c1ccc(F)cc1 | -5 | -15 | -28 | -1.4 | -6%
CCOC(=O)N1CCC(NC(=O)Cc2cn(C)c3ccccc23)CC1 | 2 | 23 | 7 | 1.0 | 0%
Cc1ccc(CNC(=S)N(C)C)cc1 | / | -9 | / | -3.1 | /
Cc1ccc(C(=O)NNC(=S)NC(=O)c2ccc(Cl)cc2Cl)cc1 | -25 | 98 | -20 | 0.8 | ?
CC(C)COC(=O)c1ccccc1C(=O)OCC(C)C | / | 1 | / | 6.5 | -10%
NC(=O)Cn1c(=O)n(CCC(=O)Nc2ccc(F)cc2)c(=O)c2sccc21 | / | -4 | / | 0.3 | /
CCN1CCCC1CN(Cc1cc2ccc(C)cc2[nH]c1=O)C(=S)Nc1ccc(F)cc1 (stereo not given) | -27 | 2 | / | 1.3 | 10%
Cc1ccc(-c2ccc(CCC(=O)O)n2-c2ccc(C(=O)O)cc2)cc1 | / | -1 | / | -2.9 | /
CCN1/C(=C2\OC(=S)N(C)C2=O)C=Cc2ccccc21 | -1 | -15 | / | 1.4 | 1%
CNc1nc(Cl)c(SC)c(N2CCOCC2)n1 | 1 | -10 | / | -1.8 | 5%
O=c1nc(NC2CCCC2)ccn1Cc1cccc(Br)c1 | -10 | 2 | -28 | 1.0 | 5%
OC1CCN(c2c3c(nc4cc(-c5ccc(F)cc5)nn24)CCC3)CC1 | -10 | 1 | -17 | 2.4 | 8%
CCOCCCNC(=S)Nc1ccc2nc(N3CCOCC3)cc(C)c2c1 | / | 22 | / | -16 | /
CCOc1ccc(/C=C/C(=O)c2c(O)cc(C)oc2=O)cc1 | / | 16 | / | -0.3 | /
CCOc1cc(S(=O)(=O)Nc2ccccn2)ccc1F | -6 | -2 | -14 | -0.7 | -3%
CCc1cc(=O)oc2cc(C)cc(OCC(=O)NCC3CCC(C(=O)O)CC3)c12 (stereo not given) | / | -3 | / | -0.5 | /
COc1ccc(CCNC(=O)C2CCN(c3ccc(N4CCOCC4)nn3)CC2)c(OC)c1 | 4 | 1 | -47 | -4.9 | 6%
CCn1c(SCC(=O)NNC(=O)c2ccc(OC)cc2)nnc1C(C)C | / | -8 | / | -1.8 | /
COc1nc(N(C)S(=O)(=O)c2ccc(C)cc2)nc(C)c1Br | / | -8 | / | -0.1 | /
O=C(O)c1ccc(-c2nc(-c3ccccc3)cs2)cc1 | 5 | -2 | / | 0.1 | -2%
C[N+]1(C)C2CCC1CC(OC(=O)C(CO)c1ccccc1)C2 (stereo not given) | 0 | -2 | / | -0.9 | 9%
O=C(c1ccc(Cl)c(Cl)c1)N1CCCC1 | 2 | -3 | -21 | -0.7 | 4%
COc1ccc(C(=O)NCC(=O)NCC(=O)OCC(=O)c2cccs2)cc1 | 1 | 2 | -12 | -0.1 | -5%
Cc1nc2ccccc2nc1OCc1cccc(Cl)c1 | 8 | 0 | -34 | -0.2 | -8%
CC(=O)Nc1ccc(N(C(=O)c2ccco2)C(C(=O)NC2CCCC2)c2cccs2)cc1 (stereo not given) | 3 | -7 | / | 1.4 | -13%
COCCCNC(=O)CN1C(=O)CSc2ncccc21 | -2 | -1 | -39 | -0.8 | -10% | Arbovirus anti repeat=3
O=C(c1ccccc1)c1ccc(OC(=O)C2CCCCC2)cc1 | / | -1 | / | 6.0 | /
CCc1cccc(NC(=O)CNC(=O)N2CC(=O)Nc3ccccc32)c1 | / | 3 | / | 0.9 | /
O=C(/C=C/c1ccco1)NCC(=O)N/N=C/c1ccc([N+](=O)[O-])cc1 | -1 | 2 | / | 1.6 | -8%
Cc1ccc(/C=C2\SC(=S)N(CCC(=O)N3CCCCC3)C2=O)cc1 | / | 38 | / | 8.0 | /
Nc1ccc(Br)c[n+]1Cc1cccc2cccnc12 | / | 1 | / | -2.7 | 4%

New compounds follow.
SMILES | Arbovirus anti | Mtb betalactam | YopH inh | RecA splice inh | Mtb growth | others
Cc1ccc(/C=C(\NC(=O)c2ccccc2)C(=O)NC2CCN(Cc3ccccc3)CC2)o1 | / | -8 | / | -0.7 | /
Cc1cc(C)nc(Nc2cccc(C(F)(F)F)c2)n1 | / | 3 | / | 0.5 | /
Cc1cc(=O)n2[nH]c(NCc3c(F)cccc3Cl)nc2n1 | 9 | 9 | / | 2.4 | 3%
Cc1cc(C)c2c(=O)[nH]n(C3CCOC(C)(C)C3)c2n1 (stereo not given) | 6 | -2 | -54 | -4.6 | 2% | Arbovirus anti repeat=6
CCc1nnc(NC(=O)c2cccc(S(=O)(=O)N3CCc4ccccc43)c2)s1 | 1 | -3 | -49 | -0.5 | -7%
CCOC(=O)Cn1cc([N+](=O)[O-])nc1[N+](=O)[O-] | -5 | 2 | -32 | -1.7 | -4%
COc1ccc(-c2ccnc3nc(N4CCOCC4)nn23)cc1 | -10 | 5 | 9 | -8.2 | -3%
O=C(CCN1CCN(c2ccc([N+](=O)[O-])cc2)CC1)c1ccc(Cl)cc1 | / | 100 | / | 1.0 | /
CCOc1cc2c(cc1OCC)-n1cccc1C(c1ccc(C)cc1C)NC2 (stereo not given) | / | 63 | / | 4.8 | /
Cc1nn(-c2ccccc2)c(C)c1C(=O)OCC(=O)NCc1ccco1 | 11 | -8 | -6 | / | -10%
C/C=C(\C)C(=O)Nc1cccc(C2=NOC3(C2)C[C@H](C(N)=O)N(C(=O)CC#N)C3)c1 (stereo not given in full) | / | -10 | / | 0.9 | 6%
COc1ccc(S(=O)(=O)N2CCOC2CNC(=O)C(=O)NCCCN2CCOCC2)cc1C (stereo not given) | / | -12 | / | 2.2 | /
O=C(CSCc1ccccc1)NNC(=S)Nc1cccc(Cl)c1Cl | 14 | -12 | -5 | 2.5 | 7%
CCOC(=O)c1c(C)c(C(=O)N2CCCCCC2)c(C)n1C | -1 | ? | -44 | 4.1 | -3%
CCOC(=O)c1n[nH]c2ccccc12 | -1 | -4 | -30 | 0.4 | /
COc1ccc(/C=N/n2c(C)cc(C)cc2=O)cc1 | 3 | 3 | / | -2.1 | 9%
COc1cc2c(cc1OC)CN(Cc1cc(=O)n3cc(C)ccc3n1)CC2 | / | -1 | / | / | -10%
CN(CCCNC(=O)C1CCC(=O)N1Cc1ccc(F)cc1)c1ccccc1 (stereo not given) | 6 | 1 | -40 | -1.2 | -1% | Arbovirus anti repeat=-3
CC(C)c1ccc(OCC(=O)N2CCN(c3ccccn3)CC2)c(Br)c1 | / | 79 | / | 3.4 | /
COc1cccc(CC2(CO)CCCN(Cc3ccc(OC)c(C)c3OC)C2)c1 (stereo not given) | / | 2 | / | -2.8 | /
CCc1c(C)sc(NC(=O)c2cc(C3CC3)on2)c1C#N | -4 | -4 | -9 | -0.4 | -2% | Arbovirus anti repeat=0
CCOc1c2ccc(C(=O)NCc3ccco3)cc2nn1CC | 2 | -6 | -29 | -0.4 | -5%
